ClpP mod = qHTS Assay for Activators of ClpP. AID 651965, 2013. Potency, µM (doses to about 57.5 µM), for the others: top-dose activity change, negative = active. hit rate 1.9% among 340,000. ATP-dependent Clp protease proteolytic subunit (Bacillus subtilis (strain 168)), P80244. purified B. subtilis ClpP, FRET peptide cleavage, 20 min; active = well fitted falling curve with a large enough effect; inconclusive = small, poorly fitted or top-dose-only effect; inactive = no such curve, though single readings can be large or run the other way; also: the source files actives as falling curves though it sought activators and does not explain the sign; nearly all actives have a fitted effect of over 65% in size; many hits overshoot -100%
Target sequence (P80244 whole entry, looked up): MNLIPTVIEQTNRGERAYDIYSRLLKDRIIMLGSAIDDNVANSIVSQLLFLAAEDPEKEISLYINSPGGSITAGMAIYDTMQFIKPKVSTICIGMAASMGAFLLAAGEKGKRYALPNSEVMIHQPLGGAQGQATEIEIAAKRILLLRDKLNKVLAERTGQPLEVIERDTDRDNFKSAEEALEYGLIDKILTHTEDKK
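FRET quenching reversal measured ClpP activation: 10 microg/mL B. subtilis ClpP at pH 8 with the FRET-FV decapeptide, read at 430 nm after 320 nm excitation. The 20-min minus 0-min signal was scaled between DMSO/no-enzyme wells and ADEP (5.8 microM final).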
* = called active by the depositor; ? = inconclusive. Potency is read from the fitted curve at half-maximal effect. The list is partial, so the mix of outcomes need not match the whole.

SMILES	ClpP mod
COc1ccc(Cl)cc1NC(=O)N(C)CCc1c(C)nn(C)c1C	1.5%
O=C(CCCn1c(=O)c2ccccc2n(Cc2cccc(Cl)c2)c1=O)NCCc1ccc(Cl)cc1	-21%
Cc1ccccc1NC(=O)CSc1nc(-c2ccc(F)cc2)c2cccc(C)c2n1	-0.7%
CN(C)CCNC(=O)CCCn1c(=O)c2cccn2c2ccccc21	-10%
CCn1c(C(=O)NCc2ccccc2OC)cc2sccc21	-1.7%
Cc1ccc(NC(=O)c2sc3nc(-c4cc5ccccc5oc4=O)[nH]c(=O)c3c2C)c(C)c1	-0.4%
COc1ccccc1NC(=O)c1c(C)cc(C)nc1SCC(=O)Nc1ccc(C)c(C)c1	-5.9%
COc1cc(Cl)c(C)cc1NC(=O)c1cc2ccc3cccnc3c2[nH]1	4.9%
COc1ccc(Br)cc1C(=O)Nc1ccc(-c2nc3cc(Cl)ccc3o2)cc1	-10%
CCOc1ccc(NC(=O)CCn2c(-c3ccc(F)cc3)cc(C(C)=O)c2C)cc1	-0.4%
CC(=O)Nc1ccc(S(=O)(=O)N2CCC(n3c(C)nc4cccnc43)CC2)cc1	-0.1%
Oc1c(C(c2ccccc2F)N2CCN(Cc3ccccc3)CC2)sc2nc(-c3ccco3)nn12 (centres undefined)	0.3%
Cc1cc2c(cc1S(=O)(=O)CCC(=O)N1CCCCC1C)OCC(=O)N2 (centres undefined)	0.7%
CCN1C(=O)C(Cc2nc3ccccc3c(=O)n2-c2ccc(OC)cc2)c2ccccc21 (centres undefined)	-0.5%
COc1ccc(CCNCc2c(C(=O)O)c(C)n(Cc3cccc(C)c3)c2C)cc1OC	-0.2%
Nc1sccc1C(=O)NCCN1CCOCC1	-3.1%
O=C(Nc1ccc2oc(-c3ccncc3)nc2c1)c1ccccc1Cl	4.5%
O=C(Nc1cccc(Br)c1)c1cc(-c2ccc3c(c2)OCCO3)on1	-11%
CCN(Cc1ccccc1)C(=O)CCc1c(C)nc2c(c(C)nn2-c2ccc(C)c(C)c2)c1C	?
O=C(NCc1noc2ccccc12)N1CCN(c2ccccc2)CC1	0.7%
COc1ccc(NC(=O)Cn2c(SCc3ccc(F)cc3)nc3cccnc32)c(OC)c1	-5.0%
COc1cc(C(=O)Nc2cccc(OCc3cc(=O)n4c(C)csc4n3)c2)cc(OC)c1OC	-9.7%
CCOc1ccc(NC(=O)[C@H](Cc2ccccc2)N2Cc3ccccc3C2=O)cc1	-0.6%
CCSc1nnc(NC(=O)c2cc(=O)c3cc(C)c(C)cc3o2)s1	-1.4%
Cc1ccc(Cl)cc1Nc1sc(C(=O)c2ccccc2)c(N)c1S(=O)(=O)c1ccccc1	0.2%
NC(=O)c1ccccc1NC(=O)Cn1nc(Cc2cccnc2)c2ccccc2c1=O	-6.9%
COc1ccc(-c2nc3cc(C(C)C)ccc3o2)cc1NC(=O)c1ccc(C)c(Cl)c1	-29%
CCN(CC)c1ccc(NC(=O)c2cc(C)nc3c2c(C)nn3-c2cccc(F)c2)c(C)c1	-2.7%
CCN1CCN(c2nnc(-n3cccc3C(=O)Nc3cccc(OC)c3)s2)CC1	-1.5%
Cc1ccc(S(=O)(=O)N(C)CCN(C)c2nc(-c3cccs3)nc3ccccc23)cc1	32µM*
Cc1cccc(CNC(=O)c2ccc3oc(=O)n(Cc4ccccc4)c3c2)c1	-2.5%
COc1ccc(Cl)cc1NC(=O)c1c(NCc2cccnc2)sc2c1CCCC2	0.3%
Cc1cccc(NC(=O)c2cc3c(=O)n(Cc4cccnc4)ccc3nc2C)c1	-28%
CN(C)c1ccc(CNC(=O)C2CCN(S(=O)(=O)c3ccc4[nH]c(=O)ccc4c3)CC2)cc1	-10%
Cc1cc(Br)ccc1NC(=O)c1ccc(NS(=O)(=O)c2c(C)noc2C)cc1	-1.1%
COc1cc(Cl)c(C)cc1NC(=O)NC1COc2ccccc2C1 (centres undefined)	-5.6%
COc1ccc(Cn2c(SCc3ccc(C(=O)NC4CCCC4)cc3)nc3cccnc32)cc1	4.5%
COc1ccc(C(=O)Oc2ccc(C3NC(=O)c4c(sc5c4CCN(C)C5)N3)cc2OC)cc1 (centres undefined)	18µM*
COC(=O)[C@@]12C[C@@H](CC(=O)NCc3cccs3)C(=O)N(Cc3ccc4c(c3)OCO4)C1=CCC(C)(C)C2	0.1%
O=C(/C=C/c1ccccc1)N1CCN(Cc2cc(=O)n3nc(-c4ccccc4F)sc3n2)CC1	-2.8%
CC(SC1=NS(=O)(=O)c2ccccc21)C(=O)O (centres undefined)	-0.3%
CC(C)c1cccc(C(C)C)c1NC1=NS(=O)(=O)c2ccccc21	-0.8%
Cc1ccc(C(=O)Nc2nc(-c3ccccc3)ns2)cc1	0.3%
CC(=O)c1ccc(NC(=O)c2nc(-c3ccc(C)cc3)n3c2CCCCC3)cc1	-6.0%
Cc1ccc(S(=O)(=O)c2cn(C)c3cc(N4CCCC4)c(F)cc3c2=O)c(C)c1	28µM*
O=C(NCC(c1cccnc1)N1CCN(Cc2ccccc2)CC1)C(=O)Nc1cccc(Cl)c1 (centres undefined)	-0.6%
O=C(CCCc1ccccc1)NC1CC(=O)N(c2ccc(Cl)cc2)C1 (centres undefined)	3.7%
Cc1ccc2nc3c(cc(C#N)c(=O)n3-c3nnc(SCc4ccccc4)s3)c(=O)n2c1	4.5%

The last 5 compounds of the section above lead into the next.
SMILES	ClpP mod
CC(=O)c1ccc(NC(=O)c2nc(-c3ccc(C)cc3)n3c2CCCCC3)cc1	-6.0%
Cc1ccc(S(=O)(=O)c2cn(C)c3cc(N4CCCC4)c(F)cc3c2=O)c(C)c1	28µM*
O=C(NCC(c1cccnc1)N1CCN(Cc2ccccc2)CC1)C(=O)Nc1cccc(Cl)c1 (centres undefined)	-0.6%
O=C(CCCc1ccccc1)NC1CC(=O)N(c2ccc(Cl)cc2)C1 (centres undefined)	3.7%
Cc1ccc2nc3c(cc(C#N)c(=O)n3-c3nnc(SCc4ccccc4)s3)c(=O)n2c1	4.5%
COC(=O)[C@@]12C[C@@H](CC(=O)NCc3ccc(C)o3)C(=O)N(Cc3ccc4c(c3)OCO4)C1=CCC(C)(C)C2	-0.5%
Cc1ccc(C)c(Cn2c(=O)n(Cc3ccccc3)c(=O)c3c2c2cc(C)ccc2n3C)c1	0.2%
CCc1cccc(C)c1NC(=O)C1CCCN(S(=O)(=O)c2cccc3nsnc23)C1 (centres undefined)	0.9%
Cc1cccc(NC(=O)CCn2cnnn2)c1C	-6.2%
CCCCN1CC(c2nc3ccccc3n2CCCCOc2ccc(C)c(C)c2)CC1=O (centres undefined)	0.3%
O=c1c2c(-c3ccc(Cl)cc3)ccnc2[nH]n1-c1ccccc1	3.7%
Cc1ccc2c(c1)c1c3n2CCN(C(=O)c2ccc(C(F)(F)F)cc2)C3CCC1 (centres undefined)	-5.4%
O=C(CCS(=O)(=O)c1nc(-c2cccs2)cc(C(F)(F)F)n1)Nc1ccc(OC(F)(F)F)cc1	-0.6%
O=C(Nc1cc(Cl)cc(Cl)c1)c1ccc2c(c1)N(Cc1cccc(Cl)c1)C(=O)c1ccccc1S2=O (centres undefined)	-1.4%
COc1cccc(N2C(=O)CSC23C(=O)N(CC(=O)Nc2cccc(Cl)c2)c2ccccc23)c1 (centres undefined)	-0.1%
O=C(CSc1nnc(-c2ccccc2Cl)o1)N1CCCc2ccccc21	-1.4%
Cc1ccc(SCC(=O)Nc2ccc3oc(-c4ccccc4C)nc3c2)cc1	4.2%
CC1=C(c2ccc(C)cc2)S(=O)(=O)N(Cc2ccc(C(=O)NCc3cccc(C)c3)cc2)C1=O	-14%
Cc1ccc(NC(=O)CCNS(=O)(=O)c2ccc3c(c2)CCCC(=O)N3)cc1	-12%
CCSc1ncc(Cl)c(C(=O)N(Cc2ccccc2)c2ccc(OC)cc2)n1	-2.6%
CCCCN1C(=O)C(O)(c2c(C)[nH]c3ccccc23)c2ccccc21 (centres undefined)	-2.2%
COc1ccc(CNC(=O)c2cc3c(-c4ccccc4F)nn(C)c3s2)cc1	4.2%
O=C(O)CCC(=O)N1CCc2cc(S(=O)(=O)NCc3ccc(F)cc3)ccc21	-1.4%
Cc1ccccc1Cn1cc(CCC(=O)NCc2cccc(Br)c2)c2ccccc21	-23%
Cc1cc(C)n2nc(CNS(=O)(=O)c3ccccc3)nc2n1	-3.7%
COC(=O)c1ccc(NC(=O)c2nn(C)c3c2COc2ccccc2-3)cc1	-3.0%
Fc1ccc(-n2cc(-c3ccccc3)c3c(NCCc4ccccc4)ncnc32)cc1	32µM*
Nc1nc(N)c(N=O)c(Nc2cccc(Cl)c2)n1	1.4%
CCOc1ccc(NC(=O)N2CCOc3ccccc32)cc1	2.3%
COC(=O)c1cc2oc3ccccc3c2n1Cc1nc(-c2ccccc2Cl)oc1C	-7.5%
COc1cccc(C(=O)NCC(c2ccc(N(C)C)cc2)N2CCOCC2)c1OC (centres undefined)	0.8%
CCOc1ccc(C(=O)Nc2ccc(C(=O)OCc3cc(=O)n4c(C)csc4n3)cc2)cc1	-1.7%
COc1cc(OC)c(NC(=O)CCCn2nc(C)c3c(C)n(-c4ccccc4)nc3c2=O)cc1Cl	-0.7%
COc1ccc(C2=NC(c3ccccc3)=Nc3ccc(C)cc3N2)cc1	0.1%
CC(C)(C)OC(=O)N1CCC(c2c(C(=O)Nc3ccc4c(c3)OCCO4)cnn2-c2ccccc2)CC1	0.9%
CCC(=O)N1CCc2cc(Br)cc(S(=O)(=O)NCCc3cccc(C)c3)c21	-1.8%
COc1cccc(-c2c(-c3ccccc3OC)ncn2Cc2cccc(-c3ccccc3)c2)c1	28µM*
Cc1ccc([N+](=O)[O-])cc1S(=O)(=O)N1CCn2cccc2C1c1ccccc1F (centres undefined)	-2.5%
CC(C)c1ccc(NS(=O)(=O)c2ccc3[nH]cc(C(=O)NC4CCCCC4)c(=O)c3c2)cc1	-0.2%
O=S(=O)(c1ccc(Cl)cc1)N1CCN(c2nc(-c3ccccc3)nc3ccccc23)CC1	-20%
Cc1cc(C)cc(NC(=O)C2CCN(S(=O)(=O)c3c(C)noc3/C=C/c3ccco3)CC2)c1	-2.6%

6 entries from above in another layout.
Molecule | ClpP mod
CCC(=O)N1CCc2cc(Br)cc(S(=O)(=O)NCCc3cccc(C)c3)c21 | -1.8%
CC(C)c1ccc(NS(=O)(=O)c2ccc3[nH]cc(C(=O)NC4CCCCC4)c(=O)c3c2)cc1 | -0.2%
CC(C)(C)OC(=O)N1CCC(c2c(C(=O)Nc3ccc4c(c3)OCCO4)cnn2-c2ccccc2)CC1 | 0.9%
Cc1ccc([N+](=O)[O-])cc1S(=O)(=O)N1CCn2cccc2C1c1ccccc1F (centres undefined) | -2.5%
COC(=O)c1cc2oc3ccccc3c2n1Cc1nc(-c2ccccc2Cl)oc1C | -7.5%
COc1cccc(C(=O)NCC(c2ccc(N(C)C)cc2)N2CCOCC2)c1OC (centres undefined) | 0.8%

More results
SMILES	ClpP mod
CCOC(=O)[C@]12CCCC=C1N(Cc1cccc3ccccc13)C(=O)[C@H](CC(=O)NCCCOC)C2	2.4%
Cc1ccc(Cn2nnc3sc4c(c3c2=O)CCC(C)C4)cc1 (centres undefined)	-12%
COC(=O)c1ccc(NC(=O)CC2C(=O)N(c3ccccc3)C(=O)N2C2CCCC2)cc1 (centres undefined)	0.1%
COc1ccc(Nc2oc(/C=C/c3ccc(F)cc3)nc2C#N)cc1	-17%
COc1ccc(NC(=O)N(CCC(C)C)C(C)c2cccs2)c(OC)c1 (centres undefined)	1.7%
COc1ccc(-c2cc(C(=O)Nc3cccc(O)c3)on2)cc1OC	8.2%
O=c1c(-c2cc(-c3ccc(F)cc3)nc3c2COc2ccc(Cl)cc2-3)coc2ccc(F)cc12	0.6%
Cc1ccc(C)c(N2CCN(c3nc4ccc(Cl)cc4n4cnnc34)CC2)c1	-30%
COc1ccc(OC)c(CCNC(=O)CCn2c(=O)c3cccn3c3cccnc32)c1	?
Cc1nc2c(c(C)nn2C(C)(C)C)c(C)c1CCC(=O)Nc1ccc(Br)cc1Br	-8.0%
O=C(Nc1ccc(OCc2cc(=O)n3c4c(sc3n2)CCCC4)cc1)c1ccc(F)cc1	0.8%
Cc1ccc(S(=O)(=O)N2CCN(c3nc(-c4cccs4)nc4nc[nH]c34)CC2)cc1	?
Cc1ccc(C(=O)COC(=O)CCC(=O)Nc2ccc(Oc3cc(C)ccc3C(C)C)cc2)cc1	-0.8%
CCOc1ccc2oc(=O)cc(CN3CCN(Cc4ccc(F)cc4)CC3)c2c1	?
Cc1ccccc1CCNC(=O)c1cc2cc(S(=O)(=O)N3CCCCC3)ccc2n1C	-9.3%
CCc1ccc(-c2ccc3nnc(SCC(=O)Nc4cccc(C(C)=O)c4)n3n2)cc1	-1.2%
CCOc1ccccc1NC(=O)Cn1c(=O)oc2cc(S(=O)(=O)NCc3ccccc3)ccc21	-2.9%
COc1ccc(N(Cc2cccs2)C(=O)c2ccc(OC)c(Cl)c2)cc1	-3.6%
CCOc1ccc(-c2cc3nc(C4CCN(C(=O)OC(C)(C)C)CC4)c(C(=O)Nc4ccc(C)cc4Cl)cn3n2)cc1	-1.6%
COc1ccccc1-c1nc(SCC(=O)c2ccccc2)n[nH]1	1.1%
Cc1nc(-c2ccc(C)c(S(=O)(=O)N3CCC(C(=O)Nc4ccc(Cl)cc4)CC3)c2)no1	-1.3%
Cc1cccc(N2CCN(C(c3ccc(F)cc3)c3nnc(-c4ccccc4)o3)CC2)c1C (centres undefined)	?
CCN(CC)S(=O)(=O)c1ccc2c(c1)N(CC(=O)Nc1ccc(Cl)cc1)C(=O)C1CCCN21 (centres undefined)	-4.6%
CCc1ccccc1NC(=O)Cc1c(C(=O)O)[nH]c2ccc(Cl)cc12	-11%
CCN(c1ccc(OC)cc1)S(=O)(=O)c1ccc2[nH]c3c(c2c1)CCCCC3	?
CCCOc1ccc(Nc2cc(C)nc(C)n2)cc1	1.3%
O=C(COCc1cc(-c2ccc3c(c2)OCO3)on1)Nc1cccc(O)c1	-7.0%

Bioassay records (PubChem BioAssay)
